High-throughput results deposited in PubChem BioAssay by several laboratories.
BJeLR viability: BJeLR cell viability loss; BJeLR (HRASV12) viability, CellTiter-Glo ATP luminescence, 48 h; reference of the scale not given here; inhibition, % (no concentration beside the values); 0.17% of 300,000 active; AID 1554;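 active = replicate mean above 50%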;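 note: 50 nL library stock added to about 25 µL; numbers are from one replicate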
PrP 5UTR inh: suppresses PrP 5' UTR mRNA reporter expression | cell-based PrP 5' UTR mRNA reporter, plate reader | inhibition, % (concentration not given with the values) | 0.35% of 340,000 active | AID 488862;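 active = every replicate at 50% or more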;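 note: 0 = median of the neutral control wells; tested in H4 reporter cells; numbers are from one replicate; inactives centre near -14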
Mtb hypoxia rep: reduces hypoxia-regulated biosensor signal in M. tuberculosis; AID 1159583; M. tuberculosis hypoxia-regulated fluorescent reporter, fluorescence; 0.1% of 300,000 active; fluorescence inhibition, % (test concentration not listed);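 active = 35 to 45% if threefold the growth effect, above 45% if 1.5-fold the growth effect; inactive = the rest, general growth blockers included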;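 note: wells of about 50 µL received 100 nL stock; 0% = vehicle wells and 100% = reference inhibitor wells; whole bacteria with a GFP reporter of the hypoxia response; strong numbers were not always called active; many hits fall short of the cut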
Sa ugtP lethal: compounds lethal to S. aureus RN4220 ugtP deletion mutant | OD600 growth, 16 h; some inactives read as strong as hits | growth inhibition, % (no concentration beside the values) | 0.54% of 330,000 active | AID 1259309;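 active = z-score under -3 and OD600 up to 0.15 on both plates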;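 note: plate controls were untreated wells for no effect and antibiotic for full effect; wells of about 80 µL received 100 nL stock; the first replicate is given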
RN4220 kill: kills Staphylococcus aureus RN4220; AID 1259311; S. aureus RN4220 growth, OD600, 16 h; 0.33% of 330,000 active; inhibition, % (no concentration beside the values);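 active = z-score of -3 or lower and OD600 up to 0.18 on both plates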;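 note: plate controls were untreated cells for no effect and reference antibiotic for full effect; stock transfer was 100 nL into about 80 µL; one replicate is shown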
Autofluor counter: compound fluorescence in toxin protease inhibitor counterscreen; compound autofluorescence counterscreen, microsphere flow cytometry; hits give high values; fluorescence intensity (no concentration beside the values); 3.1% of 360,000 active; AID 624483;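 active = at least 3 SD above the mean of all compounds, about 16000 in these data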;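 note: 100 nL of 1 mM stock went into each well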
Mtb hypoxia rep growth: second read-out of Mtb hypoxia rep, no call of its own (marks repeat the call); growth inhibition, %; measured here: M. tuberculosis growth (absorbance);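 0% = vehicle and 100% = reference antibiotic; read after six days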
An asterisk follows results filed as active.

What do the screens show for `CCn1cc(C(=O)NC2CCCCCC2)c(=O)c2cc(S(=O)(=O)N3CCCCC3)ccc21`?
PrP 5UTR inh: -4; Sa ugtP lethal: 11; RN4220 kill: 3.5; Autofluor counter: 4557

Results for O=C(Cc1cccs1)NCc1cccc(CNC(=O)Cc2cccs2)c1 ?
BJeLR viability: -11; PrP 5UTR inh: -10; Mtb hypoxia rep: -4; Sa ugtP lethal: 7; RN4220 kill: 2.5; Autofluor counter: 2444; Mtb hypoxia rep growth: 3

Results for CC1CN(S(=O)(=O)c2cccc(C(=O)NN3CCN(C)CC3)c2)CC(C)O1 (centres undefined) ?
BJeLR viability: -11; PrP 5UTR inh: -1; Mtb hypoxia rep: -5; Sa ugtP lethal: -7; RN4220 kill: 2.4; Autofluor counter: 6990; Mtb hypoxia rep growth: 0

What do the screens show for `C=C(C)CNC(=S)/N=c1\scc(C)n1CC`?
BJeLR viability: -1; PrP 5UTR inh: -29; Autofluor counter: 8002

What do the screens show for `COc1ccc(N2CCN(C(c3cc4ccc(C)cc4[nH]c3=O)c3nnnn3C3CCCC3)CC2)cc1` (centres undefined)?
BJeLR viability: 6; PrP 5UTR inh: -27; Mtb hypoxia rep: 1; Sa ugtP lethal: 7; RN4220 kill: 7.2; Autofluor counter: 24406*; Mtb hypoxia rep growth: 6

What do the screens show for `O=Cc1nc(-c2ccccc2Cl)n2ccccc12`?
BJeLR viability: -8; PrP 5UTR inh: -10; Mtb hypoxia rep: 4; Sa ugtP lethal: 2; RN4220 kill: 4.7; Autofluor counter: 9705; Mtb hypoxia rep growth: -2

What do the screens show for `CCc1cc(=O)oc2cc(OCC(=O)N3CCC(C(=O)O)CC3)ccc12`?
BJeLR viability: -14; PrP 5UTR inh: -7; Sa ugtP lethal: 11; RN4220 kill: 1.3; Autofluor counter: 5938

What do the screens show for `COc1cc(OC)cc(C(=O)N2CCC(C(=O)c3ccc(F)cc3)CC2)c1`?
BJeLR viability: 1; PrP 5UTR inh: -31; Mtb hypoxia rep: 10; Sa ugtP lethal: 9; RN4220 kill: 4.7; Autofluor counter: 4547; Mtb hypoxia rep growth: 0

Results for COc1cc(C(=O)NC(CCSC)C(=O)OCc2cc([N+](=O)[O-])cc3c2OCOC3)cc(OC)c1OC (centres undefined) ?
BJeLR viability: -4; PrP 5UTR inh: -18; Mtb hypoxia rep: 16; Sa ugtP lethal: 5; RN4220 kill: 7.4; Autofluor counter: 4485; Mtb hypoxia rep growth: 3

What do the screens show for `O=C(CCl)Nc1c(C(=O)Nc2ccc3c(c2)OCCO3)oc2ccccc12`?
BJeLR viability: 14; PrP 5UTR inh: -103; Mtb hypoxia rep: 26; Sa ugtP lethal: 4; RN4220 kill: 44; Autofluor counter: 5764; Mtb hypoxia rep growth: 21

Results for Cc1ccccc1CSc1nc2[nH]ncc2c(=O)[nH]1 ?
BJeLR viability: 6; PrP 5UTR inh: -6; Mtb hypoxia rep: 9; Sa ugtP lethal: -2; RN4220 kill: 3.8; Autofluor counter: 2176; Mtb hypoxia rep growth: 5

What do the screens show for `Cc1ccc(C2(C)NC(=O)N(CC(=O)NNC(=O)c3ccccc3F)C2=O)cc1` (centres undefined)?
PrP 5UTR inh: -23; Mtb hypoxia rep: 5; Sa ugtP lethal: 4; RN4220 kill: 2.3; Autofluor counter: 3762; Mtb hypoxia rep growth: 6

How did COc1ccc(N(CN2C(=O)C3CCCCC3C2=O)C(=O)c2ccco2)cc1 (centres undefined) do in these assays?
BJeLR viability: -6; Mtb hypoxia rep: 14; Sa ugtP lethal: -1; RN4220 kill: 1.6; Autofluor counter: 6321; Mtb hypoxia rep growth: 4

What do the screens show for `Cc1ccc(SCCCn2cncn2)cc1`?
BJeLR viability: 2; PrP 5UTR inh: -23; Sa ugtP lethal: 6; RN4220 kill: -1.8; Autofluor counter: 3462

Results for O=S(=O)(NN=Cc1cn(-c2ccccc2)nc1-c1ccccc1)c1ccccc1 ?
Mtb hypoxia rep: 5; Sa ugtP lethal: -7; RN4220 kill: -8.7; Mtb hypoxia rep growth: -4

Reprinted from the part before: 4 compounds, then new ones.
What do the screens show for `Cc1ccc(C2(C)NC(=O)N(CC(=O)NNC(=O)c3ccccc3F)C2=O)cc1` (centres undefined)?
PrP 5UTR inh: -23; Mtb hypoxia rep: 5; Sa ugtP lethal: 4; RN4220 kill: 2.3; Autofluor counter: 3762; Mtb hypoxia rep growth: 6

How did COc1ccc(N(CN2C(=O)C3CCCCC3C2=O)C(=O)c2ccco2)cc1 (centres undefined) do in these assays?
BJeLR viability: -6; Mtb hypoxia rep: 14; Sa ugtP lethal: -1; RN4220 kill: 1.6; Autofluor counter: 6321; Mtb hypoxia rep growth: 4

What do the screens show for `Cc1ccc(SCCCn2cncn2)cc1`?
BJeLR viability: 2; PrP 5UTR inh: -23; Sa ugtP lethal: 6; RN4220 kill: -1.8; Autofluor counter: 3462

Results for O=S(=O)(NN=Cc1cn(-c2ccccc2)nc1-c1ccccc1)c1ccccc1 ?
Mtb hypoxia rep: 5; Sa ugtP lethal: -7; RN4220 kill: -8.7; Mtb hypoxia rep growth: -4

What do the screens show for `CCn1c(SCC(=O)Nc2ccc3c(c2)OCCO3)nnc1-c1ccco1`?
BJeLR viability: -13; PrP 5UTR inh: -14; Mtb hypoxia rep: 3; Sa ugtP lethal: 3; RN4220 kill: 0.0; Autofluor counter: 8921; Mtb hypoxia rep growth: 6

How did C=CCSc1nnc2c(n1)OC(c1ccccn1)N(C(C)=O)c1ccccc1-2 (centres undefined) do in these assays?
BJeLR viability: -7; PrP 5UTR inh: -6; Sa ugtP lethal: -6; RN4220 kill: -0.1; Autofluor counter: 2181

Results for COc1ccc(N2CCN(C(CNC(=O)OCc3ccccc3)c3ccco3)CC2)cc1 (centres undefined) ?
BJeLR viability: -2; PrP 5UTR inh: -8; Mtb hypoxia rep: 13; Sa ugtP lethal: 18; RN4220 kill: 4.3; Autofluor counter: 9546; Mtb hypoxia rep growth: 10

Results for O=C(CSc1nnc(-c2ccc(O)cc2)n1Cc1ccco1)c1cccs1 ?
BJeLR viability: -2; PrP 5UTR inh: -8; Mtb hypoxia rep: 1; Sa ugtP lethal: -15; RN4220 kill: 3.6; Autofluor counter: 11482; Mtb hypoxia rep growth: 2

How did CCC(C(=O)NC(CC(=O)O)c1ccc(Cl)cc1)c1ccccc1 (centres undefined) do in these assays?
BJeLR viability: -9; PrP 5UTR inh: -28; Mtb hypoxia rep: 10; Sa ugtP lethal: 6; RN4220 kill: 2.4; Autofluor counter: 3842; Mtb hypoxia rep growth: 8

What do the screens show for `Cc1csc2c(N3CCN(C(=O)Nc4ccccc4)CC3)ncnc12`?
BJeLR viability: -10; PrP 5UTR inh: -20; Mtb hypoxia rep: 10; Sa ugtP lethal: 12; RN4220 kill: 1.6; Autofluor counter: 5909; Mtb hypoxia rep growth: 1

Results for Cc1onc(-c2ccccc2)c1C(=O)NC1CCC(C)CC1 (centres undefined) ?
PrP 5UTR inh: -13; Mtb hypoxia rep: 25; Sa ugtP lethal: 2; RN4220 kill: 7.3; Autofluor counter: 4233; Mtb hypoxia rep growth: 12

How did O=C(COC(=O)c1cc(=O)c2ccccc2o1)NCc1ccccc1 do in these assays?
PrP 5UTR inh: -9; Mtb hypoxia rep: 6; Sa ugtP lethal: 7; RN4220 kill: 1.8; Autofluor counter: 5203; Mtb hypoxia rep growth: 8

Results for Cc1cn([C@H]2C[C@H](O)[C@@H](CCC(=O)NCCN3CCCCC3)O2)c(=O)[nH]c1=O ?
PrP 5UTR inh: -11; Mtb hypoxia rep: -9; Sa ugtP lethal: -1; RN4220 kill: 3.3; Autofluor counter: 3520; Mtb hypoxia rep growth: 2

Results for COc1cc(C2Nc3cccc4cccc(c34)N2)cc(OC)c1O ?
PrP 5UTR inh: -15; Mtb hypoxia rep: 1; Sa ugtP lethal: -24; RN4220 kill: 15; Autofluor counter: 12031; Mtb hypoxia rep growth: -11

How did COC(=O)CNC(=O)C(Cc1c[nH]c2ccccc12)NC(=O)OC(C)(C)C (centres undefined) do in these assays?
PrP 5UTR inh: 1; Sa ugtP lethal: 2; RN4220 kill: 2.5; Autofluor counter: 6074

How did O=C(CN1CCN(c2ccc(F)cc2)CC1)NCc1cccs1 do in these assays?
BJeLR viability: -3; PrP 5UTR inh: -12; Mtb hypoxia rep: 10; Sa ugtP lethal: 0; RN4220 kill: 2.1; Autofluor counter: 4563; Mtb hypoxia rep growth: 19

Results for O=C(NC(=S)Nc1ccc(S(=O)(=O)N2CCCC2)cc1)C1CCC1 ?
BJeLR viability: 1; PrP 5UTR inh: -7; Mtb hypoxia rep: 2; Sa ugtP lethal: 48; RN4220 kill: 2.0; Autofluor counter: 2505; Mtb hypoxia rep growth: 5

How did Cc1nn(-c2ccccc2)c(Cl)c1C1C(C#N)=C(N)Oc2n[nH]c(C)c21 (centres undefined) do in these assays?
BJeLR viability: -6; PrP 5UTR inh: -11; Sa ugtP lethal: 2; RN4220 kill: 8.9; Autofluor counter: 4598

What do the screens show for `Cc1noc(C)c1C(=O)Nc1sc2c(c1C(N)=O)CCC2`?
BJeLR viability: -5; PrP 5UTR inh: -4; Mtb hypoxia rep: 6; Sa ugtP lethal: -10; RN4220 kill: 1.9; Autofluor counter: 10966; Mtb hypoxia rep growth: 6

Results for Cc1cnc(NC(=O)Cc2c[nH]c3ccccc23)s1 ?
BJeLR viability: -10; Mtb hypoxia rep: 2; Sa ugtP lethal: 11; RN4220 kill: 1.9; Autofluor counter: 7735; Mtb hypoxia rep growth: 3

How did Cc1c(C(=O)OCCN2CCCCC2)oc2ccccc12 do in these assays?
BJeLR viability: 1; PrP 5UTR inh: -14; Mtb hypoxia rep: 6; Sa ugtP lethal: -1; RN4220 kill: 0.1; Autofluor counter: 9030; Mtb hypoxia rep growth: 8

What do the screens show for `COc1ccc(S(=O)(=O)NC(N)=NCCc2ccccc2)cc1`?
PrP 5UTR inh: 4; Mtb hypoxia rep: 6; Sa ugtP lethal: 12; RN4220 kill: 2.4; Autofluor counter: 2570; Mtb hypoxia rep growth: 3

How did CC(=O)NC(NC(C)=O)c1ccc(N(C)C)cc1 do in these assays?
BJeLR viability: 12; PrP 5UTR inh: -21; Mtb hypoxia rep: 2; Sa ugtP lethal: 2; RN4220 kill: 6.3; Autofluor counter: 10663; Mtb hypoxia rep growth: 1

How did CCOc1ccccc1NC(=O)C1CCN(S(=O)(=O)c2cccc3cccnc23)CC1 do in these assays?
BJeLR viability: -2; PrP 5UTR inh: -16; Sa ugtP lethal: 6; RN4220 kill: 0.7; Autofluor counter: 5869

What do the screens show for `COc1ccc(CN(CC2CCCO2)C(=O)CN2C(=O)C(C)Oc3ccc(C)cc32)cc1OC` (centres undefined)?
BJeLR viability: -1; PrP 5UTR inh: -15; Mtb hypoxia rep: 4; Sa ugtP lethal: -4; RN4220 kill: -4.6; Autofluor counter: 3865; Mtb hypoxia rep growth: 6

How did COc1cc(S(=O)(=O)N2CCN(C)CC2)c(OC)cc1Br do in these assays?
BJeLR viability: -11; PrP 5UTR inh: 2; Sa ugtP lethal: 7; RN4220 kill: 5.8; Autofluor counter: 4705

How did O=C(O)c1cc([N+](=O)[O-])ccc1NCCc1ccccc1 do in these assays?
BJeLR viability: 3; PrP 5UTR inh: -34; Mtb hypoxia rep: 13; Sa ugtP lethal: 0; RN4220 kill: 8.2; Autofluor counter: 6525; Mtb hypoxia rep growth: 0

Results for CC(OC(=O)/C=C/c1cccc(F)c1)C(=O)NC1CCCCC1C (centres undefined) ?
BJeLR viability: 8; PrP 5UTR inh: -21; Mtb hypoxia rep: -1; Sa ugtP lethal: 5; RN4220 kill: 2.7; Autofluor counter: 5220; Mtb hypoxia rep growth: 4

What do the screens show for `COc1ccc(OC)c(S(=O)(=O)NCc2ccccn2)c1`?
BJeLR viability: -2; PrP 5UTR inh: -15; Mtb hypoxia rep: 4; Sa ugtP lethal: 2; RN4220 kill: 4.1; Autofluor counter: 4007; Mtb hypoxia rep growth: -6

Results for CC1(C)C(=O)Nc2ccccc2N1C(=O)COC(=O)Cc1c(F)cccc1Cl ?
BJeLR viability: -2; PrP 5UTR inh: -38; Mtb hypoxia rep: 12; Sa ugtP lethal: 6; RN4220 kill: 6.3; Autofluor counter: 6558; Mtb hypoxia rep growth: -5

How did CNC(=S)N1CCc2cc(OC)c(OC)cc2C1 do in these assays?
BJeLR viability: 0; PrP 5UTR inh: -15; Mtb hypoxia rep: 7; Sa ugtP lethal: 4; RN4220 kill: 0.7; Autofluor counter: 4484; Mtb hypoxia rep growth: 5
